# Assay outcomes: PubChem BioAssay, Broad Institute
# Tg IFNy HTS: T. gondii growth inhibition with IFN-gamma, primary screen, cell-based. activity change, negative = inhibition, %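 (about 20 µM by stock and volumes)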. Toxoplasma gondii growth in IFN-gamma-treated host cells; stronger effect = lower value; reference of the scale not given here. hit rate 3.8% among 69,000. AID 1259416, 2018;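 active means below -70%; inconclusive means fit judged invalid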;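 further: host cells are HeLa cells infected with Toxoplasma gondii; parasite growth read as luciferase light; one replicate is shown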
# * marks the source's active call; other numbers are inactive results; i = inactive; ? = inconclusive; & = joins results of further samples. Some of the compounds tested. The share of hits here may be higher or lower than overall.
cpd	structure	Tg IFNy HTS
1	COC1C2CCC1N(C(=O)COc1ccccc1C)CCO2 (stereo unspecified)	-5.3
2	Cc1cc(NC(=O)c2cccc(CN(C)Cc3snnc3C)c2)n(C)n1	6.1
3	O=C(O)CCC(=O)N1CCc2ccc(=O)[nH]c2CC1	24.5
4	FC(F)(F)c1cccc(CN2[C@@H]3CNC[C@H]2[C@@H]3c2ccc(-c3cccnc3)cc2)c1	-28.4
5	CC(C)N1CCC2(CC1)CC(NC1CCOCC1)c1ccccc1O2 (stereo unspecified)	-11.2
6	CN(C)C(=O)N1C[C@@H](C(=O)NCc2ccco2)C[C@@H]2OCC[C@@H]21	-4.1
7	C[C@H]1CN([C@@H](C)CO)C(=O)c2ccccc2-c2ccccc2CO[C@H]1CN(C)C(=O)Nc1cccc(C(F)(F)F)c1	-48.8
8	CCCNc1ncc(CN2CCN(S(=O)(=O)c3ccccc3)CC2)cn1	-46.4
9	COc1ccc(C(=O)N2CCCC3(CC2)CNC(=O)O3)cc1N1CCOCC1 (stereo unspecified)	5.9
10	Cc1nn(C(C)CC(=O)NC(C)c2ccccc2)c(C)c1C (stereo unspecified)	2.6
11	CN1CCN(C2=Nc3ccccc3Sc3ccc(Cl)cc32)CC1	9.0&11.3
12	COc1cc2c(cc1CN1CCN(Cc3cccc(C)c3)CC1)OCCCO2	-11.6
13	O=C(c1cncc(F)c1)N1CCC2(CC(Nc3ncccn3)C2)C1 (stereo unspecified)	1.2
14	Cc1cccnc1C(Cc1ccsc1)NC(=O)Cc1csc(NS(C)(=O)=O)n1 (stereo unspecified)	-1.5
15	CCOC(=O)Nc1ccc(NC(C)=O)cc1	10.0
16	CN(C)C[C@@]12COC[C@@H]1CN(Cc1ccc3c(c1)OCO3)C2	-25.8
17	CCN1C(=O)CCC12CCC(NC(=O)c1cscn1)CC2 (stereo unspecified)	4.4
18	COc1ccc(CNCc2nnc(-c3ccc(C)n3C)o2)c(OC)c1	4.2
19	OCC1(CCc2ccccc2)CCN(c2ccc3ccccc3n2)CC1	-77.4*
20	O=C(c1ccc[nH]1)N1CCC2(CCC(OCCO)c3ccccc32)CC1 (stereo unspecified)	0.8
21	CCn1nc(C)c(C(C)NC(=O)Cc2noc3ccccc23)c1C (stereo unspecified)	1.6
22	CN(C)C(=O)N1CCn2c(CNC(=O)c3cccn3C)cnc2C1	9.6
23	CCN(Cc1nccn1C)C(=O)c1ccc(-c2ccc3c(c2)OCCO3)nc1	7.0
24	Cn1cc(CNCC2CCN(c3ncc(C(=O)NO)cn3)CC2)c2ccccc21	-79.2*
25	CC(O)(C(=O)N1CCC(N2CCC(C(=O)NC3CC3)CC2)CC1)c1ccccc1 (stereo unspecified)	-6.4
26	Nc1c(NCc2ccccc2)c(=O)c1=O	28.4
27	CN=C1c2cc3cc(OC)ccc3n2CCN1C	-4.7
28	COCc1ncc(CN2CCN(c3nc(C)cnc3C)CC2)cn1	76.2
29	CCCCOc1ccc(C(=O)NCCc2csc(-c3cccc(F)c3)n2)cc1	-81.3*
30	CN1CCCN(C(=O)c2ncn3c(C4CCN(S(C)(=O)=O)CC4)ccnc23)CC1	9.8
31	CN(C)CCCNC(=O)C[C@@H]1CC[C@H]2[C@@H](COC[C@@H](O)CN2Cc2cccc(C(F)(F)F)c2)O1	-22.2
32	CN(C)c1ccc(C2C3C(=O)N(c4ccccc4Cl)C(=O)C3ON2c2ccccc2)cc1 (stereo unspecified)	455.3
33	CC(C)CC(=O)N1CCC2(CC1)CC(CC(=O)NC1CC1)c1ccccc1O2 (stereo unspecified)	-57.0
34	O=C(CCC(=O)N1CCCN(c2ncccn2)CC1)NC1CCCC1	0.1
35	COc1ccccc1C(=O)N1CCN(S(=O)(=O)c2cc3c4c(c2)CCC(=O)N4CCC3)CC1	24.7
36	C=CCN1CCCC12CCCN(S(=O)(=O)c1ccc(C)cc1)C2 (stereo unspecified)	158.6

# 4 of these compounds in a different format:
[30] CN1CCCN(C(=O)c2ncn3c(C4CCN(S(C)(=O)=O)CC4)ccnc23)CC1
  Tg IFNy HTS: 9.8

[31] CN(C)CCCNC(=O)C[C@@H]1CC[C@H]2[C@@H](COC[C@@H](O)CN2Cc2cccc(C(F)(F)F)c2)O1
  Tg IFNy HTS: -22.2

[32] CN(C)c1ccc(C2C3C(=O)N(c4ccccc4Cl)C(=O)C3ON2c2ccccc2)cc1 (stereo unspecified)
  Tg IFNy HTS: 455.3

[33] CC(C)CC(=O)N1CCC2(CC1)CC(CC(=O)NC1CC1)c1ccccc1O2 (stereo unspecified)
  Tg IFNy HTS: -57.0

# Going on with the list.
cpd	structure	Tg IFNy HTS
37	CN1Cc2ccccc2CC1Cn1ccnc1-c1ccc(CO)o1 (stereo unspecified)	-4.8
38	COc1ccc(C)cc1NC(=O)N1CCC2(CC1)NC(=O)c1ccc(Cl)cc1N2C	93.4
39	O=C([C@H]1CCCO1)N1CCOC2(CCCN(c3cccc(F)c3)C2)C1 (stereo partly specified)	4.7
40	C=C1c2c(Cl)ccc(O)c2C(=O)C2C(=O)[C@]3(O)C(=O)C(C(N)=O)C(=O)[C@@H](N(C)C)[C@@H]3[C@@H](O)[C@H]12 (stereo partly specified)	-32.6&-41.9
41	Cc1cc(C)n(CC(=O)NCCCc2ccc(Cl)cc2)c(=O)n1	13.6
42	CC[C@@H]1N(S(=O)(=O)c2cn(C)cn2)CCC[C@@]12CCC(=O)N2C	-51.7
43	Cc1ncc(C(=O)N2CCC3(CN(C)C(=O)O3)C2)c(-c2ccccc2)n1 (stereo unspecified)	56.6
44	Cc1c(C(=O)Oc2ccc(Cl)cc2)sc2nc(-c3ccc(Cl)cc3)nn12	14.6
45	CCn1c(=O)c(-c2nc(-c3ccc(C)c(C)c3)no2)c(O)c2ccc(F)cc21	-20.8
46	O=C(C[C@@H]1CC[C@@H]2[C@H](COC[C@H](O)CN2S(=O)(=O)c2cccc(F)c2)O1)NCc1ccncn1	-25.4
47	Cn1cnc2c1C(C(=O)O)CN(Cc1nccs1)C2 (stereo unspecified)	2.0
48	Cc1ccc(S(=O)(=O)N[C@@H]2CC[C@H](CC(=O)NCc3ccncn3)O[C@@H]2CO)cc1	64.1
49	C[C@@H]1CN([C@@H](C)CO)C(=O)c2cc(NS(=O)(=O)c3cn(C)cn3)ccc2O[C@@H](C)CCCCO[C@H]1CN(C)Cc1ccc2c(c1)OCO2	163.4
50	O=c1[nH]c2ccccc2c(O)c1-c1nc(-c2cccc(Cl)c2)no1	43.2
51	Cn1ccc(C(=O)N2CCC3(CCCN3c3ncccn3)CC2)n1	-43.3
52	O=C(Cn1c(=O)ccc2cc(S(=O)(=O)N3CCCC3)ccc21)NC1CCCCCCC1	110.1
53	Cc1cccc(C)c1OCCCN(C)C(=O)CN1CCOC1=O	54.4
54	O=C(NC(Nc1ccccn1)C(Cl)(Cl)Cl)c1ccccc1 (stereo unspecified)	9.1
55	O=C(Nc1ccc(F)cc1F)N1CC(c2ccncc2)C1	-1.5
56	CNC[C@H]1Oc2ccc(NS(=O)(=O)c3ccc(OC)cc3)cc2C(=O)N([C@@H](C)CO)C[C@@H]1C	-53.0
57	CCn1c(-c2cc(NC(=O)c3cccnc3)n[nH]2)cc2cc(OC)ccc21	69.3
58	C[C@H]1CN([C@@H](C)CO)S(=O)(=O)c2ccc(C#Cc3ccccc3F)cc2O[C@@H]1CN(C)C(=O)Cc1cccnc1	?
59	Cc1cc2cccc(NC(=O)C(C)N3CCCC3=O)c2o1 (stereo unspecified)	9.5
60	Fc1ccccc1N1CCN(C(c2ccccn2)c2nnnn2C2CCCCC2)CC1 (stereo unspecified)	-2.3
61	Cc1ccc(C)c(NC(=O)C(=O)NCCc2csc(-c3ccc(C(F)(F)F)cc3)n2)c1	2.4
62	CCc1nn(CCO)c(CC)c1Oc1cc(C#N)cc(C#N)c1	1.6
63	O=C(Cn1nnc(N2CCOCC2)n1)c1ccccc1	-6.5
64	CC(C)C(=O)N1CC2CC1CN(C(=O)c1ccco1)C2 (stereo unspecified)	-2.9
65	CCOc1ccccc1-c1nnc(NC(=O)c2cnc(NC)nc2)s1	-10.6
66	Cc1nc2ccccn2c1CC(=O)N1CCCC(c2ccc(Cc3cccc(F)c3)cn2)C1 (stereo unspecified)	-15.2
67	COc1ccc(C(=O)N2CCCC3(C2)Nc2cccnc2NC3=NCc2ccccc2)cc1 (stereo unspecified)	2.2
68	COc1cccc(-c2nc(C)c(-c3ccc(SCc4ccncc4)nn3)s2)c1	1.2
69	CCc1ccc(-c2cc3c(=O)n(Cc4nc(-c5ccccc5)oc4C)ccn3n2)cc1	-68.6
70	CCNc1nc(OC)nc(SCC(=O)OC)n1	1.0
71	C[C@H](NC(=O)[C@H]1[C@H](CO)[C@H]2Cn3c(cccc3=O)[C@H]2N1CCC(F)(F)F)c1ccccc1	-0.1
72	O=C(Cn1c(=O)n(Cc2cccs2)c2ncccc21)NCc1cccs1	-4.5
73	CCc1nn(C)c2c(=O)c(=O)c2n(C)[nH]1	1.9
74	Cc1c(CN2CCCCC2C)c(=O)n(-c2ccccc2)n1C (stereo unspecified)	-3.6
75	NC(=O)C(c1ccccc1)(c1ccc(F)cc1)c1ccc(F)cc1	14.8
76	CN1CCN(C(=O)c2ccnc(N3CC(c4ccccn4)C3)c2)CC1	-1.2
77	CN1CC2(CCN(C(=O)c3csc(-c4cccnc4)n3)C2)OC1=O (stereo unspecified)	-5.3
78	Cc1cnc(N2CC[C@@H](OCC3CC3)[C@@H]2Cc2ccncc2)nc1	-5.1
79	COC1CCCC(C(=O)N2CCC3(CC2)C(=O)Nc2ccc(-c4ccc(C(C)=O)cc4)cc23)C1 (stereo unspecified)	-85.9*
80	CO[C@@H](CN(C)S(=O)(=O)c1cn(C)cn1)[C@H](C)CN(C(=O)Nc1ccc(C(F)(F)F)cc1)[C@@H](C)CO	-47.5
81	O=C(c1cccc(F)c1)N1CCCCN2[C@H](CO)[C@@H](c3ccc(C#CC4(O)CCCC4)cc3)[C@@H]2C1	-9.4
82	O=C(C[C@@H]1CC[C@H](NC(=O)c2ccc(F)cc2)[C@@H](CO)O1)NCCc1ccccc1	6.1
83	Cc1cc(N2CCC(C(=O)Nc3nnc(-c4cccnc4)s3)CC2)n2ncnc2n1	-5.6
84	O=C(CC1COCCN1)NCc1ccc(-c2ccccn2)s1 (stereo unspecified)	1.1

# Retrieved by structure from the entries so far, 2 records:
cpd	structure	Tg IFNy HTS
81	O=C(c1cccc(F)c1)N1CCCCN2[C@H](CO)[C@@H](c3ccc(C#CC4(O)CCCC4)cc3)[C@@H]2C1	-9.4
84	O=C(CC1COCCN1)NCc1ccc(-c2ccccn2)s1 (stereo unspecified)	1.1

# Continuation:
cpd	structure	Tg IFNy HTS
85	CCc1ccc(CNC(=O)c2c(O)c3cccnc3n(-c3ccccc3)c2=O)cc1	-63.2
86	O=C(NC(=O)c1ccccc1C(F)(F)F)NN1CCOCC1	16.9
87	Cc1cc(C)n(S(=O)(=O)c2ccccc2)n1	-2.9
88	CC(C)CCNC(=O)CC1Nc2c3ccccc3nc(=S)n2C1=O (stereo unspecified)	-1.9
89	C[C@@H]1CN([C@H](C)CO)C(=O)c2cc(Br)cnc2O[C@H]1CN(C)C(=O)Nc1ccc2c(c1)OCO2	i
90	Cc1ccc2nc(C3CCCN3CCC(=O)O)[nH]c2c1 (stereo unspecified)	-1.2
91	COC(=O)C[C@H]1CC[C@H]2[C@@H](COC[C@@H](O)CN2S(=O)(=O)c2ccccc2OC)O1	10.4
92	COc1ccccc1-c1nc(Cn2nnc(C(=O)Nc3ccc(Br)c(C)c3)c2C)c(C)o1	287.2
93	CN(C)CC1(O)CCN(C(=O)Cn2c(C3CC3)nc3ccccc32)C1 (stereo unspecified)	3.8
94	O=C(C[C@@H]1CC[C@@H]2[C@H](COC[C@H](O)CN2CCc2ccccc2)O1)NCCCN1CCOCC1	-25.1
95	Fc1cccnc1OCC1CNCc2cncn2C1 (stereo unspecified)	118.7
96	Cc1ccc(N2CCC3(CC2)OCC(=O)N(C)C3C)nn1 (stereo unspecified)	-0.5
97	Cc1ccc2c(Br)cc(Br)c(OC(=O)c3ccccc3)c2n1	-85.1*
98	C[C@H](CO)N1C[C@H](C)[C@H](CN(C)Cc2ccncc2)OCCCC[C@H](C)Oc2ccc(NS(=O)(=O)c3ccc(Cl)cc3)cc2C1=O	-54.9
99	CN(C)CC(=O)N1CCn2c(COCc3cccnc3)nnc2C1	7.4
100	C[C@@H]1CCCCO[C@H](CN(C)C(=O)Nc2ccc(C(F)(F)F)cc2)[C@H](C)CN([C@@H](C)CO)C(=O)c2cc(NS(=O)(=O)c3cn(C)cn3)ccc2O1	27.4
101	Cc1ccc(NC(=O)CC(=O)NC(C)CCc2ccco2)cc1 (stereo unspecified)	-24.6
102	Cc1nc(OCC(=O)NCc2ccc3c(c2)OCO3)c2ccccc2n1	-2.8
103	O=C(C1CCC1)N1CC(=O)N2[C@H](C1)[C@H](c1ccc(Br)cc1)[C@@H]2CO	-12.4
104	CN(C)C(=O)N1CCC2(CC1)CC1(CCN(S(=O)(=O)C3CC3)CC1)N(C)C2=O	-32.1
105	O=c1c2ccccc2nc(SCCN2CCOCC2)n1C1CCCCC1	-7.2
106	Cc1ncc(C(=O)NCCCn2ccc3ccccc32)c(C)n1	2.9
107	Cc1cnc(N(C)Cc2cc(C3CC3)n[nH]2)nc1N(C)C	8.0
108	Nc1c(C(=O)NC2CCCCC2)nnn1-c1ccc2c(c1)OCCO2	54.8
109	C=CCN(Cc1cccc(OCC)c1)C(=O)C1CCOCC1	-2.3
110	COc1cc(/C=C/C(=O)N2CCN(CC(=O)NC(C)C)CC2)cc(OC)c1OC	1.2
111	NC(Cc1ccccn1)c1ccccc1 (stereo unspecified)	19.1
112	C[C@H]1CN([C@@H](C)CO)C(=O)CCCn2nncc2CO[C@@H]1CN(C)S(=O)(=O)c1cn(C)cn1	144.6
113	O=C(Cc1ccccn1)NCCC(=O)Nc1ccccc1F	-1.3
114	COCCO[C@H]1CCN[C@H]1Cc1cnn(C)c1	-39.8

# Shown with each value named: 2 of the compounds above
113: O=C(Cc1ccccn1)NCCC(=O)Nc1ccccc1F
  Tg IFNy HTS = -1.3

111: NC(Cc1ccccn1)c1ccccc1 (stereo unspecified)
  Tg IFNy HTS = 19.1
